Vaccinia stage – blocks a specific stage of Vaccinia orthopoxvirus infection, primary screen, cell-based, single point; Vaccinia-infected cells, mCherry/Venus stage reporter fluorescence; hits give low values; some inactives read as strong as hits; activity change (mCherry), % (test concentration not listed); hit rate 0.01% among 89,000; AID 1053133, 2014;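 active means mCherry past -33% and 40 or more points under the early reporter, replicates agreeing; inconclusive means past -33% without that gap or agreement; tested in A549 cells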;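 further: scaled between vehicle wells and reference inhibitor wells; 23 nL library stock went into each well; one replicate is shown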
Vaccinia stage Venus – recorded beside Vaccinia stage, whose call it bears; activity change (Venus), %; measured here: Venus reporter, other viral stage;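 negative = less Venus signal; first of two replicates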
Active calls of the source: *; ? = inconclusive; . = no result given; & = joins results of further samples. Only part of the results is shown. The share of hits here may be higher or lower than overall.

SMILES	Vaccinia stage	Vaccinia stage Venus
Cc1noc(C)c1NC(=O)N(C)C[C@H]1Oc2c(NC(=O)c3nc4ccccc4s3)cccc2C(=O)N([C@H](C)CO)C[C@H]1C	-5	-3
O=C(Nc1cccc(F)c1)N1CCCCN2[C@H](C1)[C@@H](c1ccc(-c3ccccc3F)cc1)[C@@H]2CO	?	.
C[C@@H]1CN([C@H](C)CO)C(=O)c2cccc(NC(=O)C3CC3)c2O[C@H]1CN(C)C(=O)Nc1ccc(F)cc1	0	1
COc1ccccc1NC(=O)N[C@@H]1C=C[C@H](CC(=O)N[C@@H](C)c2ccccc2)O[C@H]1CO	-11	0
CCC(=O)Nc1ccc2c(c1)C(=O)N(C)C[C@H](OC)[C@H](C)CN(C(=O)CC)[C@H](C)CO2	10	9
O=C(O)C1=C[C@H](c2ccc(C(F)(F)F)cc2)C[C@H](OCCCCO)O1	13	9
COc1ccccc1NC(=O)N[C@H]1CC[C@@H](CCNS(=O)(=O)c2ccc(C)cc2)O[C@@H]1CO	7	-6
CN(C)CCCNC(=O)C[C@@H]1C=C[C@H](NC(=O)Cc2cccnc2)[C@H](CO)O1	9	2
CO[C@@H](CN(C)C(=O)C1CCOCC1)[C@@H](C)CN(C(=O)Nc1ccc(C(F)(F)F)cc1)[C@H](C)CO	17	12
COc1ccc(S(=O)(=O)Nc2ccc3c(c2)C(=O)N([C@@H](C)CO)C[C@H](C)[C@@H](CN(C)Cc2ccc(-c4ccccc4)cc2)O3)cc1	-3	6
N#C[C@H]1[C@H](c2ccccc2-c2cccc(F)c2)[C@@H](CO)N1C(=O)C1CCC1	11	3
CC(C)NC(=O)N(C)C[C@H]1Oc2cc(C#C[C@H](C)O)ccc2S(=O)(=O)N([C@@H](C)CO)C[C@H]1C	27	19
C[C@H]1CN([C@@H](C)CO)C(=O)c2ccccc2-c2ccccc2CO[C@H]1CN(C)C(=O)C1CC1	26	4
Cc1ccc(S(=O)(=O)Nc2ccc3c(c2)CC(=O)N([C@H](C)CO)C[C@@H](C)[C@@H](CN(C)C(=O)Nc2cccc4ccccc24)O3)cc1	19	13
O=C(N[C@H]1CC[C@@H](CCn2cc(-c3cccnc3)nn2)O[C@H]1CO)c1ccccc1F	5	9
C[C@H](CO)N1C[C@H](C)[C@H](CN(C)C(=O)Nc2ccc3c(c2)OCO3)OCCCC[C@H](C)Oc2ccc(NS(C)(=O)=O)cc2C1=O	15	1
Cc1noc(C)c1NC(=O)N(C)C[C@@H]1OCCCC[C@@H](C)Oc2ccc(NC(=O)Nc3ccc(F)cc3)cc2C(=O)N([C@H](C)CO)C[C@@H]1C	26	13
C[C@H](CO)N1C[C@H](C)[C@H](CN(C)C(=O)C2CCOCC2)Oc2ncc(C3=CCCC3)cc2C1=O	17	11
O=C(C1CCOCC1)N1[C@H](CO)[C@H](c2ccccc2)C12CN(Cc1cncnc1)C2	6	6
CS(=O)(=O)N1[C@@H](C#N)[C@@H](c2ccc(C#CC3CCCC3)cc2)[C@@H]1CO	-9	1
C[C@@H]1CN([C@H](C)CO)C(=O)CCCn2cc(nn2)CO[C@H]1CN(C)Cc1ccc(C(=O)O)cc1	20	19
COc1cccc(NC(=O)N[C@H]2C=C[C@H](CC(=O)Nc3ccc(-c4ccccc4)cc3)O[C@H]2CO)c1	1	4
C[C@@H]1CN([C@H](C)CO)C(=O)Cc2cc(NC(=O)CCCCCC(=O)Nc3ccccc3N)ccc2O[C@H]1CN(C)S(C)(=O)=O	17	14
C[C@@H]1CN([C@@H](C)CO)C(=O)Cc2cc(NC(=O)Cc3cn(C)c4ccccc34)ccc2O[C@@H]1CN(C)Cc1ccc(C(=O)O)cc1	-7	-12
CCCC(=O)Nc1ccc2c(c1)C(=O)N(C)C[C@@H](OC)[C@H](C)CN(Cc1cccc(F)c1)[C@@H](C)CO2	-12	-17
CO[C@H]1CN(C)C(=O)c2cc(NC(=O)C3CCCC3)ccc2OC[C@@H](C)N(C)C[C@H]1C	-4	-6
CCCNC(=O)N1CC2(C1)[C@H](c1ccccc1)[C@H](CO)N2CC1CC1	4	15
O=C(c1cccc(F)c1)N1CC(=O)N2[C@H](CO)[C@H](c3ccc(-c4cccnc4)cc3)[C@@H]2C1	-4	-4
CNC(=O)C[C@H]1CC[C@@H]2[C@@H](COc3ccc(NC(=O)c4ccc(F)c(F)c4)cc3C(=O)N2C)O1	7	3
CO[C@@H]1CN(C)C(=O)c2cc(NC(C)=O)ccc2OC[C@H](C)N(CCC(F)(F)F)C[C@@H]1C	-4	4
CCC(=O)N1CCC2(CC1)CN(Cc1cc(F)ccc1F)[C@H](CO)c1[nH]c3cc(OC)ccc3c12	30	29
C[C@H](CO)N1C[C@H](C)[C@@H](CN(C)C(=O)Nc2ccc3c(c2)OCO3)OCc2cnnn2CCCC1=O	22&1	19&8
COc1ccc2c3c([nH]c2c1)[C@H](CO)N(CC1CC1)CC31CCN(C(=O)c2ccccc2F)CC1	22	32
COc1ccc(-c2ccc3c(c2)O[C@H](CN(C)C(C)=O)[C@H](C)CN([C@H](C)CO)S3(=O)=O)cc1	-2	2
CC(C)NC(=O)N1[C@@H]2CN(C(=O)Nc3cccc(Cl)c3)c3ccccc3[C@@H]2[C@@H]1CO	-4	0
COCC(=O)Nc1ccc2c(c1)OC[C@H](C)N(C(=O)c1cnccn1)C[C@H](C)[C@H](OC)CN(C)C2=O	15	7
C[C@H](CO)N1C[C@H](C)[C@@H](CN(C)Cc2ccc3c(c2)OCO3)OCCCC[C@H](C)Oc2ccc(NC(=O)Nc3ccc4c(c3)OCO4)cc2C1=O	-33	-31
CO[C@H]1CN(C)C(=O)c2cc(C#N)ccc2OCC[C@@H]2CC[C@@H](OC)[C@H](CN(C)C(=O)[C@H]1C)O2	-2	-8
CNC[C@H]1Oc2ccc(NC(=O)Nc3ccc(OC)cc3)cc2CC(=O)N([C@H](C)CO)C[C@@H]1C	2	5
CN1CCCCN2[C@@H](CO)[C@@H](c3ccc(-c4cccnc4)cc3)[C@@H]2C1	23	-4
CO[C@H]1CN(C)C(=O)c2ccc(NC(=O)NC(C)C)cc2OC[C@@H](C)N(C(=O)C2CCC2)C[C@H]1C	4	5
O=C(C[C@@H]1C[C@H]2c3cc(NC(=O)Cc4ccncc4)ccc3O[C@H]2[C@H](CO)O1)NCc1ccccn1	-1	-5
C[C@@H]1CCCCO[C@H](CN(C)C(=O)Nc2cccc3ccccc23)[C@H](C)CN([C@H](C)CO)C(=O)c2cc(NS(=O)(=O)c3ccc(Cl)cc3)ccc2O1	18	20
C[C@H](O)C#Cc1ccc2c(c1)O[C@@H](CN(C)Cc1ccc(-c3ccccc3)cc1)[C@@H](C)CN([C@H](C)CO)S2(=O)=O	?	.
C[C@H](CO)N1C[C@H](C)[C@@H](CN(C)C(=O)NC2CCCCC2)Oc2ccc(NS(=O)(=O)c3ccc(F)cc3)cc2CC1=O	-4	-1
C[C@@H]1CCCCO[C@H](CN(C)C(=O)CCC(F)(F)F)[C@H](C)CN([C@H](C)CO)C(=O)c2cc(NS(=O)(=O)c3cn(C)cn3)ccc2O1	17	6
CO[C@@H]1CN(C)C(=O)c2cc(NC(=O)NC(C)C)ccc2OC[C@@H](C)N(S(C)(=O)=O)C[C@H]1C	-3	-10
C[C@@H]1CCCCO[C@H](CN(C)Cc2ccc3c(c2)OCO3)[C@H](C)CN([C@@H](C)CO)C(=O)c2cc(NC(=O)Nc3ccccc3)ccc2O1	?	.
C[C@H](CO)N1C[C@H](C)[C@@H](CN(C)Cc2ccc(Oc3ccccc3)cc2)Oc2ccc(NC(=O)NC3CCCCC3)cc2C1=O	-24	-17
Cc1ccc(S(=O)(=O)Nc2ccc3c(c2)C(=O)N([C@@H](C)CO)C[C@H](C)[C@@H](CN(C)C(=O)Nc2cccc4ccccc24)OCCCC[C@H](C)O3)cc1	8	10
CCCNC(=O)N1C[C@H](C)[C@H](OC)CN(C)C(=O)c2cc(NC(=O)CC)ccc2OC[C@H]1C	10	14
CCC(=O)Nc1ccc2c(c1)C(=O)N(C)C[C@@H](OC)[C@@H](C)CN(C(=O)c1cnccn1)[C@H](C)CO2	10	5
C[C@@H]1CN([C@H](C)CO)C(=O)c2cc(NC(=O)CCCN(C)C)ccc2O[C@@H](C)CCCCO[C@@H]1CN(C)CC1CCCCC1	-19	-10
C[C@H]1CN([C@@H](C)CO)C(=O)c2cc(NS(=O)(=O)c3cccs3)ccc2O[C@@H]1CN(C)Cc1ccc(C(F)(F)F)cc1	-26	-20
C[C@@H]1CN([C@@H](C)CO)C(=O)c2cc(NC(=O)CCCN(C)C)ccc2O[C@@H](C)CCCCO[C@@H]1CN(C)CC1CCCCC1	-6	-3
CCC(=O)N1CCC2(CC1)CN(C(=O)Nc1ccc(F)cc1)[C@H](CO)c1c2c2ccc(OC)cc2n1C	-5	-6
O=C(C[C@@H]1CC[C@@H]2NC[C@H](O)COC[C@H]2O1)NCCN1CCCC1	1	1
COc1ccc(CN(C)C[C@H]2OCCCC[C@@H](C)Oc3ccc(NC(=O)NC(C)C)cc3C(=O)N([C@H](C)CO)C[C@H]2C)cc1	?	.
C[C@H]1CN([C@@H](C)CO)C(=O)c2cccc(NC(=O)Nc3ccccc3)c2O[C@H]1CN(C)Cc1ccc(C(F)(F)F)cc1	?	.
COC(=O)c1c2oc(c1C(=O)OC)C(=O)N[C@H](Cc1ccccc1)Cn1cc(nn1)[C@@H](Cc1ccccc1)NC(=O)N[C@@H](CO)CC2	16	20

New compounds follow:
SMILES	Vaccinia stage	Vaccinia stage Venus
COc1ccc(C#Cc2ccc3c(c2)O[C@@H](CN(C)C(C)=O)[C@@H](C)CN([C@@H](C)CO)S3(=O)=O)cc1	-32	-21
C[C@H](CO)N1C[C@H](C)[C@H](CN(C)Cc2ccc(Cl)c(Cl)c2)Oc2ccc(NC(=O)Nc3cccc4ccccc34)cc2CC1=O	-9	-2
C[C@H]1CN([C@@H](C)CO)C(=O)c2cc(NS(=O)(=O)c3cccs3)ccc2O[C@@H]1CN(C)C(=O)NC1CCCCC1	18	14
COc1ccc2c3c([nH]c2c1)[C@@H](CO)N(C(=O)c1ccccc1)CC31CCN(S(=O)(=O)c2cccs2)CC1	5	7
COc1ccccc1-c1cn(CC[C@H]2CC[C@@H](NC(=O)NC(C)C)[C@@H](CO)O2)nn1	8	2
Cc1ccc(S(=O)(=O)N(C)C[C@@H]2Oc3c(NC(=O)c4ccc(-c5nccs5)cc4)cccc3C(=O)N([C@H](C)CO)C[C@@H]2C)cc1	?	.
CN(C)C(=O)C[C@H]1CC[C@H]2[C@@H](COC[C@H](O)CN2Cc2nccs2)O1	19	15
CNC(=O)C[C@@H]1CC[C@H]2[C@@H](COc3ccc(NC(=O)Nc4ccccc4OC)cc3C(=O)N2C)O1	3	-1
Cc1ccccc1-c1ccc2c(c1)O[C@@H](CN(C)C(=O)C1CC1)[C@@H](C)CN([C@@H](C)CO)S2(=O)=O	-33	-27
CCS(=O)(=O)N1CC2(CN(C(=O)c3ccc(F)cc3)[C@H](CO)c3c2c2ccc(OC)cc2n3C)C1	-8	-8
N#C[C@@H]1[C@@H](c2ccc(C#Cc3ccccc3F)cc2)[C@H](CO)N1C(=O)C1CCCC1	-21	-14
COc1ccc(NC(=O)N(C)C[C@@H]2Oc3c(NC(=O)C4CCCCC4)cccc3C(=O)N([C@H](C)CO)C[C@H]2C)cc1	-2	-4
C[C@H](CO)N1C[C@H](C)[C@@H](CN(C)S(=O)(=O)c2ccccc2F)Oc2cc(-c3ccccc3)ccc2S1(=O)=O	-35	-26
C[C@@H]1CN([C@H](C)CO)C(=O)c2cccc(NC(=O)Nc3ccc4c(c3)OCO4)c2O[C@@H]1CN(C)S(=O)(=O)c1ccc(Cl)cc1	-25	-28
C[C@@H]1CN([C@@H](C)CO)C(=O)CCCn2cc(nn2)CO[C@@H]1CN(C)Cc1ccc2c(c1)OCCN2C	19	15

Single entries from the list:
Vaccinia stage with `CCS(=O)(=O)N1CC2(CN(C(=O)c3ccc(F)cc3)[C@H](CO)c3c2c2ccc(OC)cc2n3C)C1` : -8
Vaccinia stage with `COc1ccc(NC(=O)N(C)C[C@@H]2Oc3c(NC(=O)C4CCCCC4)cccc3C(=O)N([C@H](C)CO)C[C@H]2C)cc1` : -2
Vaccinia stage with `Cc1ccccc1-c1ccc2c(c1)O[C@@H](CN(C)C(=O)C1CC1)[C@@H](C)CN([C@@H](C)CO)S2(=O)=O` : -33

New compounds follow.
SMILES	Vaccinia stage	Vaccinia stage Venus
CCc1cnc(N2[C@@H](C#N)[C@@H](c3ccccc3C3=CCCC3)[C@@H]2CO)s1	-1	-2
O=C(C[C@@H]1CC[C@H](NC(=O)Nc2ccccc2F)[C@H](CO)O1)NCc1ccc(F)cc1	14	12
CCCC(=O)Nc1ccc2c(c1)OC[C@@H](C)N(C(=O)C1CCCC1)C[C@H](C)[C@@H](OC)CN(C)C2=O	-4	6
N#C[C@H]1[C@H](c2ccc(-c3ccc(F)cc3)cc2)[C@H](CO)N1c1nc(-c2ccccc2)cs1	-12	3
CO[C@H](CN(C)S(=O)(=O)c1ccc(C)cc1)[C@H](C)CN(C(=O)Nc1ccccc1F)[C@H](C)CO	-7	-6

Reprinted at random: two entries already listed, in no set order.
SMILES	Vaccinia stage	Vaccinia stage Venus
CCc1cnc(N2[C@@H](C#N)[C@@H](c3ccccc3C3=CCCC3)[C@@H]2CO)s1	-1	-2
CCCC(=O)Nc1ccc2c(c1)OC[C@@H](C)N(C(=O)C1CCCC1)C[C@H](C)[C@@H](OC)CN(C)C2=O	-4	6

Entries of single compounds, quoted from the list. Order of values: Vaccinia stage | Vaccinia stage Venus
Listed for C[C@@H]1CN([C@H](C)CO)C(=O)c2cccc(NC(=O)Nc3ccc4c(c3)OCO4)c2O[C@@H]1CN(C)S(=O)(=O)c1ccc(Cl)cc1 → -25 | -28
Listed for N#C[C@H]1[C@H](c2ccccc2-c2cccc(F)c2)[C@@H](CO)N1C(=O)C1CCC1 → 11 | 3
Listed for CCC(=O)N1CCC2(CC1)CN(C(=O)Nc1ccc(F)cc1)[C@H](CO)c1c2c2ccc(OC)cc2n1C → -5 | -6
Listed for COc1ccccc1-c1cn(CC[C@H]2CC[C@@H](NC(=O)NC(C)C)[C@@H](CO)O2)nn1 → 8 | 2

Screening results: PubChem BioAssay, Broad Institute
